Screening data as filed in PubChem.
T cruzi repl = T. cruzi replication inhibition; AID 1885; inhibition, % (concentration not given with the values); actives 1.4% (n = 300,000); T. cruzi beta-gal in NIH3T3, luminescence, 90 h;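 active = mean inhibition across valid replicates above about 55%, limit read from the data; inconclusive = mean below that limit but half or more replicates reach it; inactive = mean below it, under half of replicates reach it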;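 note: signal also drops with host cell toxicity which is not excluded here; 0% = plate median of DMSO wells and 100% = zero luminescence signal; higher percent means less beta-gal luminescence so fewer parasites; stock transfer was 50 nL into about 50 µL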
Beta apoptosis = blocks beta cell apoptosis. INS-1E cytokine-induced death, ATP luminescence, 48 h; percent of positive-control rescue, neutral wells zero. protection from apoptosis, % (no concentration beside the values). actives 0.8% (n = 300,000). AID 435005;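 active = all replicates at 75% or more, or half of them and the mean; inconclusive = half reach 75% but not the mean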;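 note: 0% = cytokine-treated negative control wells and 100% = positive control rescue; higher means more ATP so stronger rescue from cytokine killing; wells of about 40 µL received 100 nL stock; the first replicate is given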
Bfl-1 A1 inh = inhibitors of the anti-apoptotic protein A1, read as caspase activation | caspase activation, % (test concentration not listed) | actives 0.066% (n = 330,000) | MEF A1-2A-BIM cells, Caspase-Glo 3/7 luminescence, 3 h; percent of clofoctol response, vehicle zero;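 active = over half of replicate activation scores above 10%, or exactly half above 10 with the replicate mean above 10; inconclusive = replicate mean below 10 yet half the replicates above 10; inactive = over half of replicates below 10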;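 note: wells of about 30 µL received 50 nL stock; many hits fall short of the cut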
* = called active by the depositor; u = inconclusive.

SMILES	T cruzi repl	Beta apoptosis	Bfl-1 A1 inh
CCOC(=O)c1cccc(NC(=O)CCc2nc(-c3ccc(C)cc3)no2)c1	9	-2	-0.1
COC(=O)CCC(=O)c1ccc(OC)c(Cl)c1	-6	-5	u
C/C(=N\NC(=O)CCn1nc(C)cc1C)C(C)(C)C	0	-22	0.5
Cc1ccc(/C=N/NC(=O)Cc2c[nH]c3ccccc23)c(C)c1	-8	-5	0.2
Cc1cccc(NC(=O)CSc2ccc(-c3ccc4c(c3)OCO4)nn2)c1C	-1	-3	-1.0
CN(C)c1ccc(/C=N\NC(=O)c2ccc(Cn3cc(Cl)cn3)cc2)cc1	-4	7	0.0
Cc1ccc(/C=N/NC(=O)CC(=O)NCc2cccnc2)cc1	-5	-7	1.8
COc1cc(OC)c(OC)cc1/C=N/NC(=S)NCC1CCCO1 (centres undefined)	-22	4	0.3
O=C(Nc1ccc(N2CCCC2)cc1)C(Cl)c1ccccc1 (centres undefined)	0	11	-4.2
CC1=CC2=C(OC1N(C)C)c1cccc3cccc(c13)C2=O (centres undefined)	9	-20	-0.5
O=C(O)C(S)C(S)C(=O)O (centres undefined)	15	-7	-0.1
S=c1[nH]nc(-c2ccco2)n1/N=C/c1ccc(Br)s1	14	-3	1.2
Cc1ccc(C(c2cc(Cl)c3cccnc3c2O)N2CCN(C)CC2)cc1 (centres undefined)	30	52	0.1
CCOc1cc(/C=N/n2cnnc2)cc(Br)c1O	0	-1	-0.1
Cc1cccc(N(CC(=O)Nc2ccccc2-c2ccccc2)S(=O)(=O)c2ccccc2)c1C	24	3	-0.2
CC(C)(C)c1ccc(/C=N/NC(=O)C(=O)NCCCN2CCOCC2)cc1	-15	-2	0.3
CCCCCCCC(=O)N/N=C/c1cccnc1	-7	-2	-0.5
Cc1ccc(S(=O)(=O)N/N=C/c2c(C)nn(-c3ccccc3)c2C)cc1	9	4	-1.5
N#C/C(=C(\O)c1ccco1)c1ccccn1	12	-4	-1.0
O=C(CSCc1ccc(Cl)cc1)N/N=C/c1ccc(Cl)cc1Cl	-2	3	-1.3
Cc1nnc(SCC(=O)N/N=C/c2cn(-c3ccccc3)nc2-c2ccc(F)cc2)n1-c1ccccc1	-12	5	-1.4
CCc1cc2c(=O)nc3n(c2s1)Cc1ccccc1/C3=C(/O)c1ccccc1Cl	17	89*	-0.5
CC(C)(C)OC(=O)CN1C(=O)S/C(=C\c2ccc(-c3cccc(C(=O)O)c3)o2)C1=O	4	-8	1.0
O=C(N/N=C/C=C/c1ccccc1)c1ccccc1Br	-11	-5	-0.1
COc1cc(/C=N/N=C2/NC(=O)C(c3ccccc3)S2)ccc1O (centres undefined)	-5	3	0.2
Clc1ccc(C2C3=C(Nc4ncnn42)c2ccccc2CC3)cc1 (centres undefined)	4	-7	0.3
Nn1cnnc1N/N=C/c1cc([N+](=O)[O-])c(Cl)cc1Cl	-11	-3	0.4
O=C(CCN1CCN(C(c2ccccc2)c2ccccc2)CC1)N/N=C/c1ccc(O)cc1	-19	-1	-0.6
COC(=O)CCC(=O)OC1(C)C(=O)C2=CN(CCc3ccccn3)C(c3ccc(OC)cc3)=CC2=C(Br)C1=O (centres undefined)	13	-15	-0.7
CC(=O)Oc1ccc(/C=N/NC(=O)C2CCCN2S(=O)(=O)c2ccc(Cl)cc2)cc1 (centres undefined)	5	-1	0.3
CCCCNC(=S)N(C)/N=C/c1sc(N2CCCCC2)nc1-c1cccs1	52	12	0.0
CC1CCC/C(=N/Nc2ccc([N+](=O)[O-])cc2[N+](=O)[O-])C1 (centres undefined)	-9	3	0.0
O=C(COC(=O)/C=C/c1nc2ccccc2s1)Nc1cccc(Cl)c1Cl	-1	-9	0.3
Cc1ccc(C)c(S(=O)(=O)N/N=C2/CCCc3ccccc32)c1	6	-1	-1.2
O=C(Nc1ccc(F)cc1)C1CC(=O)n2c(nc3ccccc32)N1 (centres undefined)	-2	-11	0.8
O=c1cc(-c2ccc(F)cc2F)[nH]c2ccccc12	-2	-3	0.6
C=CC[C@@H]1C=C(C)C[C@H](C)C[C@H](OC)[C@H]2O[C@@](O)(C(=O)C(=O)N3CCCC[C@H]3C(=O)O[C@H](/C(C)=C/[C@@H]3CC[C@@H](O)[C@H](OC)C3)[C@H](C)[C@@H](O)CC1=O)[C@H](C)C[C@@H]2OC	14	3	-1.0
COc1ccccc1C(=O)Nc1cc2c(ccc3ccccc32)oc1=O	-23	-1	-0.1
O=C(COc1ccc2ccccc2c1)NNC(=O)[C@@H]1CCCC[C@@H]1C(=O)O	-5	-4	0.3
COC(=O)c1ccc(NC(=O)CNCc2ccncc2)cc1	-9	4	-0.4
CC1(C)NC(=O)N(CC(=O)Nc2cc(S(=O)(=O)N3CCOCC3)ccc2N2CCOCC2)C1=O	-1	-5	0.1
O=C(N/N=C/c1ccc(O)c(O)c1O)/C(=C/c1ccc([N+](=O)[O-])cc1)NC(=O)c1ccccc1	34	4	-0.2
COc1ccc(CNc2ccc3c(c2)CCC3)cc1OC	66*	4	1.1
COc1cc(/C=N/NC(=O)Cn2ccc(C(F)(F)F)n2)cc(OC)c1OC	-4	-3	-0.5
O=C(CSc1nc2sc3c(c2c(=O)n1-c1ccccc1)CCCC3)N/N=C/c1ccc(C(=O)O)cc1	-6	-5	0.2

Full records, looked up by structure. Values in the order: T cruzi repl	Beta apoptosis	Bfl-1 A1 inh
Record of COc1ccc(CNc2ccc3c(c2)CCC3)cc1OC : 66*	4	1.1
Record of O=C(Nc1ccc(F)cc1)C1CC(=O)n2c(nc3ccccc32)N1 (centres undefined) : -2	-11	0.8
Record of CC1CCC/C(=N/Nc2ccc([N+](=O)[O-])cc2[N+](=O)[O-])C1 (centres undefined) : -9	3	0.0
Record of COc1ccccc1C(=O)Nc1cc2c(ccc3ccccc32)oc1=O : -23	-1	-0.1
Record of O=c1cc(-c2ccc(F)cc2F)[nH]c2ccccc12 : -2	-3	0.6

(cont.)
SMILES	T cruzi repl	Beta apoptosis	Bfl-1 A1 inh
Nc1nonc1-c1nc2ccccc2n1CC(=O)N/N=C\c1ccc(-c2ccc(Cl)cc2)o1	-3	-8	0.4
CCn1nc(C)c(/C=N/NC(=O)Cc2ccc(Cl)cc2)c1C	4	0	-1.3
C/C(=N\Nc1ncc(Cl)cc1Cl)c1cccs1	-11	0	-6.4
COC(=O)c1ccc(C23CC4(C2)[C@H](CN(Cc2ccc(C(F)(F)F)cc2)[C@@H]4c2ccccc2)C3c2ccccc2)cc1 (some centres undefined)	-3	-3	-0.2
O=C(CN(c1ccc(Cl)cc1)S(=O)(=O)c1ccccc1)N/N=C/c1ccco1	-1	-1	0.9
O=C(N/N=C/c1ccccn1)c1ccc(Br)cc1	0	4	-1.0
Cc1ccc(NC(=S)N/N=C/c2ccc(Cl)c([N+](=O)[O-])c2)cc1	3	1	0.3
O=C(CNc1cccc2ccccc12)N/N=C/C(Br)=C/c1ccccc1	-20	-9	-0.1
CC(C)/C=N/Nc1nc(-c2ccc(Br)cc2)cs1	40	-4	-0.1
O=C(CSc1nc(-c2ccccc2)nc2c1Cc1ccccc1O2)Nc1ccccc1	-19	2	0.3
O/N=C1/CCc2cccc3cccc1c23	-8	-1	0.4
Cc1ccc2c(c1Br)/C(=N/N1C(=O)c3ccccc3C1=O)C(=O)N2	-6	-18	0.5
O=C(Nc1cccc(Cl)c1)OCc1cncs1	22	-1	-0.5
COc1cc(/C=N/NC(=O)CNc2n[nH]c(=O)[nH]c2=O)ccc1O	-6	-5	-0.5
CCOC(=O)/C(=N/Nc1ccc(Cl)cc1)S(=O)(=O)c1ccc(Cl)cc1	18	-2	0.9
COc1cc(/C=N/NC(=O)CNC(=O)c2ccc3c(c2)OCCO3)ccc1O	-3	-1	-0.4
COc1ccc(/C=N/NC(=O)Cc2csc(Nc3cccc(C(F)(F)F)c3)n2)c(OC)c1	10	0	0.0
Cc1ccc(/C=N/c2sc3c(c2C#N)CCC3)o1	0	8	0.4
COc1ccc(C(=O)N/N=C/c2sc3ccccc3c2O)cc1	12	96*	-1.2
CCN1CCN(c2cc(N3CCN(C(=O)c4ccco4)CC3)c3c4c(onc24)-c2ccccc2C3=O)CC1	42	26	-1.3
C/C(=N\NC(=O)c1ccncc1)C12CC3CC(CC(C3)C1)C2	-18	-4	0.1
COc1cc(/C=N/NC(=O)c2ccoc2C)cc(OC)c1OC	1	2	-0.9
Nc1nnc(SCC(=O)NN2C(=O)NC3(CCCCC3)C2=O)s1	4	1	0.3
O=C1C2C3C=CC(CC3)C2C(=O)N1/N=C/c1ccccc1O (centres undefined)	-21	6	0.3
Cc1cccn2c(/C=N/OCc3ccc(F)cc3)c(-c3ccc(Cl)cc3)nc12	25	6	0.3
Cc1ccc(/C=N/c2sc3c(c2C#N)CCC3)s1	4	-1	-0.4
COc1cc(/C=C2/C(=O)N(c3ccc(Br)cc3)N=C2C)cc([N+](=O)[O-])c1O	2	1	0.2
CCO/C(C)=N/n1c2nc3ccccc3nc2c2c(=O)n(CC(C)C)c(C)nc21	8	-15	0.3
CC(/C=N/NC(=O)c1c(Br)cnn1C)=C\c1ccccc1	11	-2	-0.3
Cc1ccc(NC(=O)c2ccc(N/N=C/c3cccc(O)c3)c([N+](=O)[O-])c2)cc1	27	63	36*

Random excerpt: three records from the list
SMILES	T cruzi repl	Beta apoptosis	Bfl-1 A1 inh
Nc1nonc1-c1nc2ccccc2n1CC(=O)N/N=C\c1ccc(-c2ccc(Cl)cc2)o1	-3	-8	0.4
COC(=O)CCC(=O)c1ccc(OC)c(Cl)c1	-6	-5	u
CCOc1cc(/C=N/n2cnnc2)cc(Br)c1O	0	-1	-0.1

Next section:
SMILES	T cruzi repl	Beta apoptosis	Bfl-1 A1 inh
COc1cc(Br)cc(/C=N/c2ncn[nH]2)c1O	-9	2	-0.8
Cn1cc(C(=O)N/N=C/C(Br)=C\c2ccccc2)ccc1=O	-27	-10	1.0
CC1(C)CC(=O)C/C(=N/NC(=O)CCCOc2ccc(Cl)cc2Cl)C1	4	-8	0.0
Cc1nc2ccccc2n1/C(=N/S(=O)(=O)c1ccc(Br)cc1)c1ccccc1	-17	-10	-0.6
COC(=O)/C=C1\S/C(=N/N=C/c2ccccc2)NC1=O	-13	-3	-1.0
CCC1CCCCN1CCCNC(=O)Cn1cnc2sc(C)c(S(=O)(=O)N3CC(C)CC(C)C3)c2c1=O (centres undefined)	8	2	0.6
O=C1NC(=S)N/C1=C\c1ccc(N2CCOCC2)cc1	-11	-2	-0.3
CCOc1ccc(Cl)cc1/C=N/NC(=O)CNC(=O)c1ccccc1	1	-7	0.0
O=C(N/N=C/c1ccccc1)NC1CCCCC1	11	-1	-0.3
COc1ccc(S(N)(=O)=O)cc1C(=O)NCCCN1CCN(c2ccccc2OC)CC1	-22	-5	0.0
COc1ccccc1/C=C/C=N/n1c(COc2ccccc2)n[nH]c1=S	1	-1	0.0
CCCC(=O)n1nc(-c2ccco2)nc1SCc1ccccc1	-2	-7	-1.4
C/C(=N/Nc1nc(-c2ccc(Cl)cc2)cs1)c1cccs1	12	0	-0.8
O=C(CSc1ccccn1)N/N=C/c1ccccc1[N+](=O)[O-]	-5	-3	0.1
COc1cc(/C=N\NC(=O)CNC(=O)c2cccc([N+](=O)[O-])c2)ccc1O	0	0	-0.2
N/C(=N\OC(=O)CC1CCCCC1)c1ccc([N+](=O)[O-])cc1	13	7	0.8
Cc1ccc(/C=c2\sc3n(c2=O)CN(c2cccc(Br)c2)CN=3)o1	-10	-5	0.8
O=C(CSc1nc(C2CC2)nc2ccccc12)NCc1ccc2c(c1)OCO2	5	-6	-0.4
COc1ccc2[nH]c(=O)c(CN(C3CCCCC3)C(c3nnnn3Cc3ccco3)C(C)C)cc2c1 (centres undefined)	19	1	0.2
Cc1cc(/C=N/n2cnnc2)c(C)n1-c1ccc(OCc2ccc(Cl)cc2Cl)cc1	44	113*	0.1
CC1CCCC(NC(=O)c2cn(C)c3ccc(S(=O)(=O)N4CCCC4)cc3c2=O)C1C (centres undefined)	15	6	-0.1
COc1ccc(OCC(=O)N/N=C/c2ccc(O[C@@H]3O[C@H](CO)[C@@H](O)[C@H](O)[C@H]3O)cc2)cc1	-17	-2	-0.7
C/C=C/C=N/NC(=O)CN(c1ccc(Br)cc1)S(=O)(=O)c1ccccc1	1	-1	-0.3
C=CCNc1nc(SCC=C)nc2ccsc12	14	-3	-0.4
C/C(=N\OC(=O)c1ccc(Cl)cc1)c1sc(-c2ccccc2)nc1C	-21	-1	-5.9
COc1cc(/C=C2\SC(=S)NC2=O)ccc1OS(=O)(=O)c1ccccc1	-23	113*	-0.5
CC1(C)Cc2ccccc2C(/C(=N\Nc2cccc(Cl)c2)C(N)=O)=N1	51	4	0.6
C/C(Cc1ccccc1)=N\NC(=O)CCCCCC(=O)N/N=C(\C)Cc1ccccc1	13	-5	1.2
N#CC1=C(S)N=C(N)C(c2nc(-c3ccccc3)cs2)C12CCCCC2 (centres undefined)	-2	-6	-0.5
Cn1ncc(C#N)c1/N=C/N(Cc1ccccc1)Cc1ccccc1	21	13	1.3
CCOc1ccccc1C(=O)N/N=C/c1cccc2cccnc12	-2	-8	0.0
C/C(=N\NC(=O)c1ccc(Cl)cc1)c1ccc(Br)s1	58*	11	0.8
Cc1cc2cc(CNC(=O)c3cc4ccccc4o3)ccc2n1C	65*	4	-0.1

An excerpt; count on the stated rates, not on these rows.
